Bioassay records deposited in PubChem by several laboratories.
RGS16-Gao: modulators of RGS16 binding to Galphao, primary screen, biochemical, human proteins, multiplexed bead flow cytometry; actives 0.38% (n = 220,000); binding response (% of control), % at 10 µM; Regulator of G-protein signaling 16 (Homo sapiens) + Guanine nucleotide-binding protein …; bead-based flow cytometry RGS16-Galphao binding, fluorescence; actives lie on both sides;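 active = below 25% or above 175%, edge rows of some plates excepted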;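 also: Galphao activated by GDP with aluminum fluoride before binding; 100% = wells without compound and 0% = beads without RGS; some results beyond the cut were filed as inactive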
Target sequence (O15492 whole entry, looked up): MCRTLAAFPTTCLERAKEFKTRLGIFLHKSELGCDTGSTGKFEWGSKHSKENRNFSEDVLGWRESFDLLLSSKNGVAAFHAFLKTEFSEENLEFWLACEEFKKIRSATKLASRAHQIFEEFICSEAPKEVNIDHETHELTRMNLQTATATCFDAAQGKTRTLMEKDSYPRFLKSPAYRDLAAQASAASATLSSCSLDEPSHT
Target sequence (P09471 whole entry, looked up): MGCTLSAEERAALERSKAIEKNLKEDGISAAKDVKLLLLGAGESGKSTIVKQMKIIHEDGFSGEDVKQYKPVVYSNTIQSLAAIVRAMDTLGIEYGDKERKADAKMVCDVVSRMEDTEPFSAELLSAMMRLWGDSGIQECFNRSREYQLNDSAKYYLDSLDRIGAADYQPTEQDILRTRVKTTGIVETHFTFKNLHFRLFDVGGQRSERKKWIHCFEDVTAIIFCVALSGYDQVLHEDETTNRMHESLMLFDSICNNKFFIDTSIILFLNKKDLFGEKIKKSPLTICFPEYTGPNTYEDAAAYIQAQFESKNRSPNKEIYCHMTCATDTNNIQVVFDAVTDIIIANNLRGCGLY
HSV replic up: enhancers of HSV replication in host cells, fold increase, host cell viability. HSV replication augmentation in cells. maximum fold increase. actives 0.005% (n = 220,000);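 active = peak rise of 1.5-fold or more in the series; inconclusive = self-fluorescent or not available for retest; tested in PC3 cells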;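 also: first round at 10 µM; read as green reporter fluorescence; hits show the peak of a series up to 25 µM; 1 = signal of infected wells without compound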
GALR2 agonist: GALR2 receptor agonists, primary screen, cell-based; Galanin receptor type 2 (Homo sapiens), O43603; GALR2-expressing cells, agonist activation read-out; activation, %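 (tested at 5 µM)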; actives 0.48% (n = 140,000);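 active = above mean plus 3 SD of all compounds, about 5% in these data, not always enough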;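 also: 0% = vehicle buffer wells and 100% = reference agonist at full effect; tested in CHO reporter cells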
Target sequence (O43603 whole entry, looked up): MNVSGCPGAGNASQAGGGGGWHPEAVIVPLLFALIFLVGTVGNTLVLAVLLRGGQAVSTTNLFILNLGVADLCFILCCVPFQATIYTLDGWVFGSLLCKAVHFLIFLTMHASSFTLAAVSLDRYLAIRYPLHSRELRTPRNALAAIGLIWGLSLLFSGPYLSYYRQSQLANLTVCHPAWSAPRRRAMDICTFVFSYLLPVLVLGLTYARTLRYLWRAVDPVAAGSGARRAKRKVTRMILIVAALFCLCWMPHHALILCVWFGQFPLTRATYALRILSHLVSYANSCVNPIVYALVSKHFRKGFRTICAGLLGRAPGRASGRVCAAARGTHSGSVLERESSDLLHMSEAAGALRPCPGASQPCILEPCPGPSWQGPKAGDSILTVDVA
PKD1 kinase inh: inhibitors of human PKD1 kinase, biochemical, fluorescence polarization. Serine/threonine-protein kinase D1 (Homo sapiens), Q15139. PKD1 kinase fluorescence polarization assay. inhibition, %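 (about 10 µM by stock and volumes)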. actives 0.056% (n = 200,000);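 active = inhibition of 50% or more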;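 also: controls were vehicle for no effect and a reference inhibitor for full effect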
INS promoter inh: inhibitors of insulin promoter-driven GFP, primary screen, imaging, TRM-6 cells (human fetal islet line), eGFP reporter, cell count | inhibition, % at 2 µM | reporter expression induced with tamoxifen | AID 1273, 2008 | actives 0.9% (n = 130,000);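 active = inhibition above the mean plus 3 SD, with well images judged a real hit on visual review, cut at about 60% in these data, passing the limit was not always enough; inconclusive = inhibition over the cutoff but images rejected on review; inactive = inhibition not above the cutoff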
INS promoter inh cell count: recorded beside INS promoter inh, whose call it bears; normalized cell count, %; measured here: cell count, toxicity; reference of the scale not given here;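 cells exposed to compound for 48 h; stained nuclei by imaging scaled within each plate; lower means fewer cells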
HSV replic up primary fold: also measured in HSV replic up; calls as there; fold increase; compound at 10 µM; measured here: primary screen fold increase 10 uM; tested in PC3 cells;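 GFP signal in the first replicate; 1 = infected wells without compound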
* = called active by the depositor; i = inactive; ? = inconclusive; . = not tested or not shown.

The line under a structure holds: PKD1 kinase inh	HSV replic up primary fold	HSV replic up	GALR2 agonist	RGS16-Gao	INS promoter inh	INS promoter inh cell count
N=C(N)SCc1nc2ccccc2c(=O)n1-c1ccccc1Cl
  -15	0.94	i	-1.9	102	.	.
Cc1cc2nc3n(c2cc1C)CC1CC(C(=O)NCc2cccc(C(F)(F)F)c2)N(C)C31 (configuration not stated)
  .	0.96	i	.	89	.	.
COc1ccc(-c2nnnn2C(C)C)cc1S(=O)(=O)Nc1ccccc1
  .	1	i	.	100	.	.
C=CCOc1ccccc1/C=c1\sc2nc(-c3oc4ccccc4c3C)nn2c1=O
  -9	0.73	i	-0.7	.	49	125
Cc1cc(C)c2c(n1)nn1c(C)c(CCC(=O)NCc3ccco3)c(C)nc21
  -5	1	i	-1.7	101	60	78
CC(C)(C)c1ccc(C2=NC(=O)C(CC(=O)O)S2)cc1 (configuration not stated)
  .	1	i	.	105	.	.
Cc1ccc(C)c(N2CCN(C(=O)c3ccc(Cn4c(=O)[nH]c5ccccc5c4=O)cc3)CC2)c1
  9	0.82	i	1.0	102	.	.
CCCCCC/C(C)=C1/SC(=S)NC1=O
  -12	1.1	i	-2.3	103	-3	162
CC(=O)Nc1ccc(/C=N/Nc2nc3ccccc3[nH]2)cc1
  5	1	i	0.4	101	.	.
O=C(NC1CCCCC1)C(=S)N1CCCC1
  2	0.89	i	.	103	.	.
Cc1ccc(C2CC(=O)C(C=NCCN3CCN(CC(=O)Nc4cc(C)cc(C)c4)CC3)=C(O)C2)cc1 (configuration not stated)
  2	0.89	i	.	97	.	.
CCCCOC(=O)c1ccc(NC(=O)C(=O)NCCN(C)C)cc1
  .	0.87	i	.	95	.	.
CCCCNC(=O)C1CCCNC1=O (configuration not stated)
  -1	0.68	i	-3.0	101	10	83
N#Cc1ccc(/C=C/C(=O)c2ccc3c(c2)OCO3)cc1
  0	0.94	i	.	105	47	90
COC(=O)C(O)(CC(=O)Nc1ccc(C)c(F)c1)C(F)(F)F (configuration not stated)
  -3	0.92	i	-0.6	95	31	86
CCOC(=O)c1ccc(NC(=O)CN2C(=O)C(=O)N(CC(C)C)C2=O)cc1
  4	0.68	i	-1.7	102	7	78
CSC1=C(C#N)C(c2ccc(C(C)C)cc2)CC(=O)N1 (configuration not stated)
  -6	0.89	i	-2.1	100	.	.
CC1CCCC(NC(=O)Cc2ccc(Br)cc2)C1C (configuration not stated)
  -1	0.82	i	-1.3	105	-370	60
COc1cccc(/C=N/NC(=O)Cn2nc(C)c([N+](=O)[O-])c2C)c1O
  4	0.87	i	-0.7	103	.	.
O=C(Nc1ccc(N2CCCC2)c(Cl)c1)c1ccc(Br)o1
  2	0.75	i	-3.7	100	-6	108
C=C(C)CSc1nc2ncccc2[nH]1
  -1	0.83	i	-2.2	102	71*	176*
Cc1cccc2c1Sc1ccccc1CC2=O
  -1	1	i	-1.8	104	45	137
C=CCn1c(SCC(=O)Nc2ncc(Cc3cc(C(F)(F)F)ccc3Cl)s2)nnc1-c1ccncc1
  5	0.97	i	-1.0	106	-27	84
Cc1cc(C)nc(Nc2n[nH]c(COc3ccccc3)n2)n1
  -5	0.94	i	-0.8	100	.	.
O=C(Nc1cnc2ccccc2c1)c1cccnc1
  -9	0.66	i	-1.6	103	.	.
COc1ccc(C2Nc3ccccc3C(=O)N2c2ccccc2)cc1CN1CCOCC1 (configuration not stated)
  -1	0.94	i	.	119	.	.
CCc1ccc(C(=O)COC(=O)CNC(=O)c2cccs2)cc1
  -10	0.95	i	-0.8	103	-13	83
CCN1CCN(C(=S)NCc2ccc(C)cc2)CC1
  5	1.3	i	-0.3	105	.	.
O=C(O)CCc1nn2c3ccccc3n(CCO)c2nc1=O
  -2	1.3	i	.	100	0	128
Cn1c(CN2CCCC2)nc2cc(NS(=O)(=O)c3ccccc3)ccc21
  -10	1	i	-3.0	105	-190	63

Compounds from the list above that contain a CF3 group (3):
The line under a structure holds: PKD1 kinase inh	HSV replic up primary fold	HSV replic up	GALR2 agonist	RGS16-Gao	INS promoter inh	INS promoter inh cell count
Cc1cc2nc3n(c2cc1C)CC1CC(C(=O)NCc2cccc(C(F)(F)F)c2)N(C)C31 (configuration not stated)
  .	0.96	i	.	89	.	.
COC(=O)C(O)(CC(=O)Nc1ccc(C)c(F)c1)C(F)(F)F (configuration not stated)
  -3	0.92	i	-0.6	95	31	86
C=CCn1c(SCC(=O)Nc2ncc(Cc3cc(C(F)(F)F)ccc3Cl)s2)nnc1-c1ccncc1
  5	0.97	i	-1.0	106	-27	84

(next part)
The line under a structure holds: PKD1 kinase inh	HSV replic up primary fold	HSV replic up	GALR2 agonist	RGS16-Gao	INS promoter inh	INS promoter inh cell count
CN(C)CCCC(=O)c1ccc2c(c1)OCO2
  4	1	i	0.1	100	-60	42
COc1ccc(CCNC(=O)CSc2ccc(Br)cc2)cc1OC
  2	0.98	i	.	103	0	190
COc1ccc(NC(=O)CC2C(=O)NCCN2C(=O)c2ccc(Cl)cc2)cc1 (configuration not stated)
  .	1.1	i	.	100	.	.
c1ccc(N2CCN(Cc3ccnc4ccccc34)CC2)cc1
  1	0.83	i	-2.5	48	-50	149
O=C(NCC1CCCN(Cc2ccc3nonc3c2)C1)c1ccc(F)cc1 (configuration not stated)
  -6	1	i	.	112	.	.
O=C(CC(=O)Nc1ccc(Cl)c(Cl)c1)N/N=C/c1ccc(O)cc1
  -9	0.92	i	0.4	107	-21	56
Cc1ccc(SCCC(=O)Nc2ccccc2C(=O)N2CCOCC2)cc1
  2	0.95	i	-0.1	71	-21	113
O=C(NCCN1CCOCC1)c1ccc2ccccc2n1
  8	0.92	i	-3.4	241	59	45
CNC(=O)C1CC(=O)N(Cc2ccc3c(c2)OCO3)C(=Nc2ccc(OC)cc2)S1 (configuration not stated)
  7	0.8	i	-1.1	104	.	.
O=C(NCc1cccs1)c1cccc(N2CCCC2=O)c1
  -1	1	i	0.6	124	36	69
Cc1[nH]n(-c2ccccc2)c(=O)c1C(C[N+](=O)[O-])c1ccccc1Cl (configuration not stated)
  -5	0.85	i	-1.0	i	-50	106
O=S(=O)(Nc1cccc2ncccc12)c1cccs1
  2	0.41	i	-0.4	98	.	.
Cc1ccc(O)c(CNc2ccc(S(=O)(=O)Nc3nccs3)cc2)c1
  .	0.98	i	.	102	.	.
OCC[C@@H]1C[C@@H](O)[C@H](O)[C@]2(CCCCO2)O1
  -2	0.85	i	-0.8	109	40	83
O=c1c2cnn(-c3ccccc3)c2ncn1/N=C/c1ccncc1
  -8	.	.	-2.3	.	14	86
CCc1ccc(/C=C/C(=O)c2cc(Br)ccc(=O)c2O)cc1
  -7	1.1	i	-1.3	99	-3	58
c1ccc(Cn2cc(CSc3ccccc3)nn2)cc1
  .	0.86	i	.	100	.	.
COc1ccc(CCn2c(C)nc3ccccc3c2=O)cc1OC
  -3	0.97	i	.	100	.	.
Cc1ncc(CN2CCC(CO)(CCOc3ccccc3)CC2)s1
  .	0.68	i	.	102	.	.
O=C(c1n[nH]c(=O)c2ccccc12)N1CCN(c2ccccc2Cl)CC1
  20	0.85	i	-0.4	99	.	.
O=C(NCC1CCCO1)C1CCN(CC2CCCCC2)CC1 (configuration not stated)
  -16	1.1	i	-0.8	105	44	84
CC(C)CC(=O)NC(=S)Nc1ccc(Cl)cn1
  -10	1.1	i	0.3	101	-50	103
CCOC(=O)Cc1cc(=O)n2[nH]c(-c3ccc(Cl)cc3)cc2n1
  5	1	i	1.5	81	0	68
Cc1ccc(N(CC(=O)NCC2CCCO2)C(=O)Cn2nnc(-c3cccs3)n2)cc1 (configuration not stated)
  1	1	i	.	96	15	131
CN1C(=O)/C(=C/c2coc3ccc(O)cc3c2=O)SC1=S
  .	.	?	.	95	.	.
Cc1cc(C)cc(N(CC(=O)NCC2CCCO2)C(=O)CCC(=O)Nc2cc(C)on2)c1 (configuration not stated)
  -2	.	.	-1.4	63	7	124
O=C(Cn1cnc2ccccc2c1=O)Nc1ccccc1N1CCOCC1
  -5	1	i	.	105	.	.
Cc1ccc(NC(=O)c2cc(C)n(-c3cccc(C)c3)c2C)cc1
  -3	0.69	i	0.6	79	-7	98
COc1ccc(/C=N/n2nnnc2N)cc1OC
  .	0.91	i	.	125	.	.
CN(CC(=O)Nc1ccccc1N1CCOCC1)S(=O)(=O)c1ccc(F)cc1
  6	0.88	i	-2.4	100	26	178

Sorted by the number under GALR2 agonist (low to high): 4 of the compounds above.
Compound,PKD1 kinase inh,HSV replic up primary fold,GALR2 agonist,RGS16-Gao
Cc1cc(C)cc(N(CC(=O)NCC2CCCO2)C(=O)CCC(=O)Nc2cc(C)on2)c1 (configuration not stated),-2,.,-1.4,63
OCC[C@@H]1C[C@@H](O)[C@H](O)[C@]2(CCCCO2)O1,-2,0.85,-0.8,109
CC(C)CC(=O)NC(=S)Nc1ccc(Cl)cn1,-10,1.1,0.3,101
Cc1ccc(NC(=O)c2cc(C)n(-c3cccc(C)c3)c2C)cc1,-3,0.69,0.6,79

Carrying on.
The line under a structure holds: PKD1 kinase inh	HSV replic up primary fold	HSV replic up	GALR2 agonist	RGS16-Gao	INS promoter inh	INS promoter inh cell count
O=C(NC1CCCC1)c1cccc(NC(=O)c2ccco2)c1
  -8	0.75	i	-1.4	96	-231	111
CC(C)CNC(=O)c1cccc(NC(=O)c2ccco2)c1
  -6	0.9	i	-0.9	94	.	.
COc1ccc(C(N)=O)cc1NC(=O)c1cccc(F)c1
  -3	1	i	-3.1	100	3	98
N#CCC(=O)N/N=C/c1ccc(OCC(=O)Nc2ccc(F)cc2)cc1
  7	1.1	i	.	108	.	.
[O-][n+]1onc2c1CCC1N(O)C(c3ccccc3)CC21O (configuration not stated)
  4	0.85	i	-1.7	95	26	81
O=C(Cc1cccs1)N/N=C/c1ccccn1
  .	1	i	.	102	.	.
CSc1cccc(NS(=O)(=O)c2cccc3nsnc23)c1
  -3	0.95	i	-1.2	100	.	.
COc1cccc(CNC(=O)CC2C(=O)NCCN2Cc2ccoc2)c1OC (configuration not stated)
  -2	0.84	i	.	112	7	88
O=C(Cc1ccccc1)Nc1ccc(F)cc1
  4	1	i	.	101	.	.
COC(=O)c1c(C)oc2ccc(NS(=O)(=O)c3cccs3)cc12
  2	0.78	i	-1.5	113	62	121
CC(OC(=O)c1cccs1)C(=O)Nc1nc(-c2ccccc2)cs1 (configuration not stated)
  2	1.2	i	0.1	110	.	.
CCOCCn1c(CN2CCCC(C)C2)nc2c1c(=O)n(C)c(=O)n2C (configuration not stated)
  .	0.97	i	.	101	.	.
CC(C)c1[nH]nc2c1C(C(C)C)C(C#N)=C(N)O2 (configuration not stated)
  -2	1.1	i	-0.6	111	58	72
COCCOC(=O)C(CC(=O)O)NCc1ccco1 (configuration not stated)
  .	1.1	i	.	102	.	.
CCc1cc2c(=O)n(CCC(C)C)c(=S)[nH]c2s1
  -1	1	i	.	103	52	165
COc1ccc(OC)c(CN2CCCC(C(=O)c3ccccc3SC)C2)c1 (configuration not stated)
  -4	0.95	i	.	102	.	.
CC(CCc1ccccc1)NC(=O)CCN1N=C(c2ccccc2)CCC1=O (configuration not stated)
  -7	0.92	i	.	96	-60	117
O=C(Nc1cn(-c2ccccc2)nc1-c1ccc(F)cc1)c1ccccc1
  0	1.1	i	-1.9	103	.	.
CCC(Sc1nc2n[nH]c(C)c2c(=N)n1-c1cccc(Cl)c1)C(=O)NCCOC (configuration not stated)
  7	0.92	i	-2.5	99	.	.

An excerpt from above in order of length of the SMILES, rising.
The line under a structure holds: PKD1 kinase inh	HSV replic up primary fold	HSV replic up	GALR2 agonist	RGS16-Gao	INS promoter inh	INS promoter inh cell count
COc1ccc(C(N)=O)cc1NC(=O)c1cccc(F)c1
  -3	1	i	-3.1	100	3	98
CC(CCc1ccccc1)NC(=O)CCN1N=C(c2ccccc2)CCC1=O (configuration not stated)
  -7	0.92	i	.	96	-60	117
CCOCCn1c(CN2CCCC(C)C2)nc2c1c(=O)n(C)c(=O)n2C (configuration not stated)
  .	0.97	i	.	101	.	.

2 entries from above, comma-delimited.
Molecule,PKD1 kinase inh,HSV replic up primary fold,HSV replic up,GALR2 agonist,RGS16-Gao,INS promoter inh,INS promoter inh cell count
CN(CC(=O)Nc1ccccc1N1CCOCC1)S(=O)(=O)c1ccc(F)cc1,6,0.88,i,-2.4,100,26,178
O=C(NC1CCCC1)c1cccc(NC(=O)c2ccco2)c1,-8,0.75,i,-1.4,96,-231,111
